Assay outcomes (PubChem BioAssay)
Tg IFNy HTS = T. gondii growth inhibition with IFN-gamma, primary screen, cell-based | Toxoplasma gondii growth in IFN-gamma-treated host cells; stronger effect = lower value; reference of the scale not given here | activity change, negative = inhibition, %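 (about 20 µM by stock and volumes)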 | 3.8% of 69,000 active;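 active = below -70%; inconclusive = fit judged invalid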;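 note: host cells are HeLa cells infected with Toxoplasma gondii; parasite growth read as luciferase light; one replicate is shown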
Starred values were filed as active, the others as inactive; i = inactive; ? = inconclusive.

SMILES | Tg IFNy HTS
COc1ccc2cc1Oc1cc3c(cc1OC)CC[N+](C)(C)[C@H]3Cc1ccc(cc1)Oc1c(OC)c(OC)cc3c1[C@@H](C2)[N+](C)(C)CC3 | 24
Cc1ccc(NC(=O)c2c(O)c3ccccc3n(-c3ccccc3)c2=O)c(C)c1 | -11
O=C(CCn1ccccc1=O)N1CC[C@@H](c2ccc3c(c2)OCO3)[C@H](O)C1 | 1
CCOC(=O)c1nc(NCc2ccc(OC)cc2)c2ccccc2n1 | 57
CC(=O)N[C@@H](CSSC[C@H](NC(C)=O)C(=O)O)C(=O)O | 22
CCS(=O)(=O)N1CCc2nnc(CN(C)C(C)C)n2CC1 | -13
COCCN1CCc2nc(SCc3nc(-c4ccccc4OC)oc3C)[nH]c(=O)c2C1 | 8
CC(=O)N1CCC(C(=O)NCc2ccccc2)(N(Cc2ccccc2)C(=O)c2ccc(C)cc2)CC1 | 36
Cn1cc(C(CNC(=O)Nc2ccccc2Cl)c2cccnc2)c2ccccc21 (stereo not drawn) | i
O=C(NCc1ccccc1)C(c1ccccc1)N(Cc1ccco1)C(=O)c1ccccn1 (stereo not drawn) | 7
C=C(C)COc1ccccc1C(=O)NCCc1nc2c(C)cccc2[nH]1 | -57
O=C(Oc1cccc2cccnc12)c1cccc(-n2cnnn2)c1 | 114
Cc1ccc(-c2coc(-c3ccc(NC(=O)c4ccc(F)cc4)cc3)n2)cc1 | 16
Cc1nc(CNC(=O)c2cc(=O)c3ccccc3o2)nc2c1CCCC2 | 9
CCn1nc(C)c(CNC(C)Cn2nc(C)cc2C)c1C (stereo not drawn) | 1
C[C@@H](NC(=O)C[C@H]1CC[C@@H]2[C@H](COC[C@H](O)CN2C(=O)Nc2cccc(Cl)c2)O1)c1ccccc1 | -52
Cc1oc(-c2cccc(Br)c2)nc1Cn1cnc2nc3c(cc2c1=O)CCCC3 | -36
COC(=O)c1c(NCc2ccc(SC)cc2)c2cccc(Cl)c2[nH]c1=O | -79*
CN(Cc1ccc(C(=O)O)cc1)Cc1nc2ccccc2n1C | -1
O=C(CCc1cc(=O)[nH]o1)N1CCCC(c2ccn[nH]2)C1 (stereo not drawn) | 75
O=C(c1csc2nc(-c3ccccc3)cn12)N1CCCC(c2cc(=O)[nH]cn2)C1 (stereo not drawn) | -14
CC(C)/C=C/C(=O)N1CCC(CO)(Cc2ccccc2C(F)(F)F)CC1 | -46
CC(=O)Nc1ccc(S(=O)(=O)N2CCSC2)cc1 | -2
Cc1ccc2nc3c(c(C(=O)O)c2c1)CCC3 | -5
COc1ccc2c3c([nH]c2c1)[C@@H](CO)N(Cc1ccccc1F)CC31CN(CC2CC2)C1 | -10
O=C(c1ccco1)N1CC2(CCNCC2)c2cc(Cl)ccc21 | -22
COc1cccc(CNC(=O)C[C@H]2CC[C@H]3[C@@H](COc4ccc(NS(=O)(=O)c5ccccc5F)cc4C(=O)N3C)O2)c1 | -20
COc1ccc(S(=O)(=O)N2C[C@H](O)COC[C@@H]3O[C@@H](CC(=O)N[C@@H]4CCN(Cc5ccccc5)C4)CC[C@H]32)cc1 | -10
CN1C(=O)c2cc(NC(=O)Cc3cccs3)ccc2OC[C@@H]2O[C@H](CC(=O)NCCc3ccncc3)CC[C@@H]21 | 8
O=C(O)C1Sc2[nH]c(=O)sc2C2c3ccc(O)cc3OC(=O)C12 (stereo not drawn) | -1
CCc1ccnc(NC(=O)Nc2c(Br)cc(C(C)C)cc2Br)c1 | ?
CCc1cc2c(=O)c(-c3ccc(F)cc3)c(C)oc2cc1OCC(=O)O | 20
CC1=C(C(=O)NCc2ccccc2Cl)C2(CCN(S(C)(=O)=O)CC2)OC1=O | 14
CC(C)Cn1cncc1CNC(=O)c1cccc2ccnn12 | 2
COc1ccc(OC)c(-c2noc(-c3c(O)c4ccccc4[nH]c3=O)n2)c1 | 35
CC(=O)N1CCC2(CC1)OC(=O)C(C)=C2C(=O)NC1CCN(Cc2ccccc2)CC1 | 102
CC(C)(C)C(=O)Nc1cccc(-c2cc(-c3c(Cl)cccc3Cl)no2)c1 | -38
Cc1onc(-c2ccccn2)c1C(=O)NCCc1c[nH]c2ccccc12 | -21
Cn1c(O)c(C2=c3ccccc3=NC2=O)c2ccccc21 | 17
Cc1ccc(-c2nc(CSc3nc4c(=O)[nH]c(C)nc4n3C)c(C)o2)cc1 | 0
COc1ccc(-c2ccc([C@H]3[C@@H](C#N)N(C(=O)NC(C)C)[C@H]3CO)cc2)cc1 | -76*
CC(O)CN1CCC2(CC1)CC(Oc1ccccc1)CO2 (stereo not drawn) | 65
CCC(=O)N1C[C@@H]2[C@H](c3ccccc31)[C@@H](CO)N2C(=O)CC1CC1 | -6
Cc1nnsc1C(=O)Nc1ncc(-c2ccccc2)n1C | 198
CCCc1c(SC(=O)N(C)C)ccc2c(C)cc(=O)oc12 | -17
O=C(CCc1nc(-c2ccccn2)no1)N1CCC(CCc2ccccc2F)CC1 | 19
O=C(Nc1cnn(Cc2ccccc2F)c1)c1cc(-c2ccc(Cl)cc2)on1 | -24
CC(C)=CC(=O)N1CCCN(CC(C)C)CC1 | 2
CCCn1nc(C)cc1NC(=O)c1cccc(CN2CCCC2C)c1 (stereo not drawn) | -45
Cc1ccc(C(=O)NCc2nnc3n2CCCCC3)cc1N1CCCCC1 | -3
CN(C)C(=O)CC1CC2(CCN(S(=O)(=O)C3CC3)CC2)Oc2ccccc21 (stereo not drawn) | 5
CCCS(=O)(=O)N1C[C@H](OCc2ccccn2)[C@@H]2COC[C@@H]21 | 108
COCC1c2nnn(CC3CC3)c2CCN1C(=O)c1cnoc1C (stereo not drawn) | 167
Cc1ccc(CN2C[C@H]3[C@H](C(=O)NCC(C)C)CCS(=O)(=O)[C@H]3C2)cc1 | -27
CCNC(=O)C[C@@H]1CC[C@H]2[C@@H](COC[C@@H](O)CN2C(=O)c2ccccn2)O1 | 35
CCc1csc(N2[C@@H](C#N)[C@@H](c3ccccc3-c3ccc(F)cc3)[C@@H]2CO)n1 | -29
NCCCCCNCC12CC3CC(CC(C3)C1)C2 | 10
Cn1cc(C[C@H]2[C@H](OCC3CC3)CCN2S(C)(=O)=O)cn1 | -6
FC(F)(F)c1ccc(-c2nnc(-c3ccc4c(c3)OCO4)o2)cc1 | -54
CCN1[C@H](C(=O)NC2Cc3ccccc3C2)[C@@H](CO)[C@@H]2Cn3c(ccc(C4=CCCC4)c3=O)[C@@H]21 | -30

In the list so far, 17 contain a halogen:
SMILES | Tg IFNy HTS
Cn1cc(C(CNC(=O)Nc2ccccc2Cl)c2cccnc2)c2ccccc21 (stereo not drawn) | i
Cc1ccc(-c2coc(-c3ccc(NC(=O)c4ccc(F)cc4)cc3)n2)cc1 | 16
C[C@@H](NC(=O)C[C@H]1CC[C@@H]2[C@H](COC[C@H](O)CN2C(=O)Nc2cccc(Cl)c2)O1)c1ccccc1 | -52
Cc1oc(-c2cccc(Br)c2)nc1Cn1cnc2nc3c(cc2c1=O)CCCC3 | -36
COC(=O)c1c(NCc2ccc(SC)cc2)c2cccc(Cl)c2[nH]c1=O | -79*
CC(C)/C=C/C(=O)N1CCC(CO)(Cc2ccccc2C(F)(F)F)CC1 | -46
COc1ccc2c3c([nH]c2c1)[C@@H](CO)N(Cc1ccccc1F)CC31CN(CC2CC2)C1 | -10
O=C(c1ccco1)N1CC2(CCNCC2)c2cc(Cl)ccc21 | -22
COc1cccc(CNC(=O)C[C@H]2CC[C@H]3[C@@H](COc4ccc(NS(=O)(=O)c5ccccc5F)cc4C(=O)N3C)O2)c1 | -20
CCc1ccnc(NC(=O)Nc2c(Br)cc(C(C)C)cc2Br)c1 | ?
CCc1cc2c(=O)c(-c3ccc(F)cc3)c(C)oc2cc1OCC(=O)O | 20
CC1=C(C(=O)NCc2ccccc2Cl)C2(CCN(S(C)(=O)=O)CC2)OC1=O | 14
CC(C)(C)C(=O)Nc1cccc(-c2cc(-c3c(Cl)cccc3Cl)no2)c1 | -38
O=C(CCc1nc(-c2ccccn2)no1)N1CCC(CCc2ccccc2F)CC1 | 19
O=C(Nc1cnn(Cc2ccccc2F)c1)c1cc(-c2ccc(Cl)cc2)on1 | -24
CCc1csc(N2[C@@H](C#N)[C@@H](c3ccccc3-c3ccc(F)cc3)[C@@H]2CO)n1 | -29
FC(F)(F)c1ccc(-c2nnc(-c3ccc4c(c3)OCO4)o2)cc1 | -54

Next records.
SMILES | Tg IFNy HTS
O=C(C[C@H]1CC[C@@H]2[C@H](COC[C@H](O)CN2Cc2cc(F)ccc2F)O1)NCc1ccc(Oc2ccccc2)cc1 | -66
O=C(c1ccccc1F)N1C[C@H]2[C@@H](c3ccccc31)[C@@H](CO)N2C(=O)Nc1ccccc1 | -3
COC(=O)[C@@H]1C[C@@H](N(C)C)CN1Cc1cccn1-c1ncccn1 | -2
CCOCC1c2c(cnn2C)CCN1Cc1ccc2c(c1)OCO2 (stereo not drawn) | -5
COc1cc(CN2CC3(CCN(C(=O)c4cccnc4)CC3)c3c([nH]c4cc(OC)ccc34)[C@@H]2CO)cc(OC)c1 | 12
COc1cccc2cc(-c3cncn3CCCC(C)(C)CO)oc12 | 11
COc1ccc(NC(=O)N(C)C[C@H]2OCCCC[C@@H](C)Oc3ccc(NC(=O)c4ccncc4)cc3C(=O)N([C@@H](C)CO)C[C@H]2C)cc1 | i
Cc1[nH]cnc1-c1nccn1CCN1CCCC1=O | -5
CS(=O)(=O)N1CCC(n2cc(C(=O)O)cn2)C1 (stereo not drawn) | -1
Cn1nccc1NC(=S)Nc1ccc(Cl)cc1 | -5
C[C@@H]1CN([C@@H](C)CO)C(=O)c2cc(NC(=O)Nc3ccc4c(c3)OCO4)ccc2O[C@@H](C)CCCCO[C@@H]1CN(C)C(=O)CCCN(C)C | 63
CC1(C)Oc2ccc3ccc(=O)oc3c2-c2c1[nH]c1ccccc21 | -69
CCn1c(CCCNC(=O)c2ccco2)nc2ccccc21 | 36
C[C@@H]1CCCCO[C@H](CN(C)Cc2ccc(C(=O)O)cc2)[C@@H](C)CN([C@@H](C)CO)C(=O)c2cc(N(C)C)ccc2O1 | -30
O=C(C1CCC2(CC1)N=CN(CC1CC1)C2=O)N1CCN(c2ccccn2)CC1 (stereo not drawn) | -7
CCc1nc(C)sc1CNC(=O)C1CC(=O)N(Cc2ccccn2)C1 (stereo not drawn) | -25
COc1cccc(Cn2nc(C(=O)NC3CC3)c3c2CCN(C(=O)c2ccc(-c4ccco4)cc2)C3)c1 | 12
COC(=O)CCC(=O)N1CCC2(CC1)CC2 | 8
COc1ccc(S(=O)(=O)NCCc2csc(-c3cccc(F)c3)n2)cc1F | 20
COc1ccc(-c2cc(=O)oc3c(C)c(O)c(CN(C)C)cc23)cc1 | -49
CN1CCN(CCC2CCCCN2)CC1 (stereo not drawn) | 17
Cc1ncsc1CCN(C)Cc1ccccn1 | 0
O=C(Nc1cccc(C(=O)N2CCOCC2)c1)c1cnn2cccnc12 | -12
COc1ccc(-c2nc(Cn3cnc4onc(-c5ccc(Cl)cc5)c4c3=O)c(C)o2)c(OC)c1 | 75
Cn1ccnc1CN1CCC2(CCCN2Cc2cccc(F)c2)CC1 | -3
CC(=O)Nc1ccc(Cl)c(C(=O)N2CCN(CC(=O)N3CCCCC3)CC2)c1 | -2
O=C(NCCc1csc(-c2ccc(C(F)(F)F)cc2)n1)C(=O)Nc1ccc(F)c(Cl)c1 | 91
CN(Cc1cc2n(n1)CCNC2)CC1(N2CCOCC2)CCCCC1 | -7
CCc1nc(CC)n(Cc2nc(-c3cccs3)no2)n1 | -7
Fc1cccc(-c2nc(CNc3ncc(Cl)cn3)[nH]c2-c2ccccn2)c1 | -68
Clc1ccc(-n2ccc3ccccc32)cc1 | -14
Cc1oc(-c2ccccc2)nc1Cn1nnc(C(=O)Nc2ccc(Cl)c(Cl)c2)c1C | 30
Cc1ccc(CNCC2OCCc3cn(Cc4ccccn4)nc32)o1 (stereo not drawn) | -43
Cc1cn(CC(=O)N2CCC3(CCCN(C)CC3)CC2)c(=O)[nH]c1=O | -4
O=C(N/N=C\c1cc([N+](=O)[O-])ccc1N1CCOCC1)c1ccccn1 | 3
Cc1cccc(C)c1NC(=O)c1ccccc1C(=O)O | -10
Cn1cnc(S(=O)(=O)N[C@H]2CC[C@H](CC(=O)NCC3CCCCC3)O[C@@H]2CO)c1 | -4

A portion of the library; count on the stated rates, not on these rows.
